High-throughput results: PubChem, several laboratories
E coli growth – inhibitors of Escherichia coli growth. OD600, 23 h; stronger effect = lower value. OD600 absorbance (concentration not given with the values). hit rate 0.21% among 330,000. AID 1053175;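 active = OD600 absorbance below the run mean of sample wells minus 3.6 SD, in any replicate, cut at about 0.56 in these data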;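 note: stock transfer was 300 nL into about 60 µL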
LANA-H2B inh – blocks KSHV LANA binding to histone H2A/H2B; inhibition, % (no concentration beside the values); cell-free LANA-H2A/H2B peptide, fluorescence polarization; Q9QR71; hit rate 0.6% among 320,000; in the data active = inhibition mostly above about 10%, no sharp cut-off; inactive = mostly below about 6.7%;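 note: stock transfer was 7.5 nL into about 10 µL; 0% = median of vehicle wells and 100% = median of positive control wells; one replicate is shown; the record names a cut of 25% in any replicate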
Vif A3G – HIV-1 Vif–A3G interaction blockers – biochemical, TR-FRET, GST-Vif 1-94, biotin-A3G peptide, dose response retest, primary screen (AID 1117319) | TR-FRET GST-Vif / biotin-A3G peptide binding; higher % means a stronger effect; test concentration not given here; strong numbers were not always called active | inhibition, %, or IC50 in µM where a hit was titrated | hit rate 0.57% among 260,000;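 active = above the screen mean plus three standard deviations and confirmed in dose response; inconclusive = results disagree or hit not tested in dose response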;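 note: Vif residues 1-94 fused to GST binding biotinylated APOBEC3G peptide 110-148; 0% = full assay without inhibitor and 100% = GST in place of GST-Vif; retest series ran down from 100 µM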
Beta2AR agonist – human beta-2 adrenergic receptor agonism by FAP. Am2.2-beta2AR cells, FAP receptor internalization, flow cytometry; reference of the scale not given here. response, % (test concentration not listed). hit rate 0.43% among 340,000. AID 504454;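 active = response above a set limit, near 3 SD of response in nonfluorescent compounds, cut at about 42% in these data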;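 note: stock transfer was 100 nL into about 11 µL; a reference agonist was the positive control; negative values mostly stem from fluorescent compounds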
Target sequence (P07550 whole entry, looked up): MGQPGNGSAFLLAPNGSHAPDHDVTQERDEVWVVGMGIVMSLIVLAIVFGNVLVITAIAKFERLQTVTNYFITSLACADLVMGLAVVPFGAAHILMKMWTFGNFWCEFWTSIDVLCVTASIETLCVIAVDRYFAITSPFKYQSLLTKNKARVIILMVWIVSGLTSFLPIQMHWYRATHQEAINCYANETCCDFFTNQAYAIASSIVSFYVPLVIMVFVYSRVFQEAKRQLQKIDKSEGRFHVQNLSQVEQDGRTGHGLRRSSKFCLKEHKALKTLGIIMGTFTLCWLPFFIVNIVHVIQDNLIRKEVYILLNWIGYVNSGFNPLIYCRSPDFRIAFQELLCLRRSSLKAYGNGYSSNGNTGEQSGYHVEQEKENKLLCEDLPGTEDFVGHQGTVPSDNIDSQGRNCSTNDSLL
HNF4A DNA FP – change in binding of human HNF4 alpha to DNA. AID 1224865. HNF4a-FITC DNA binding, fluorescence polarization, 1 h. P41235. hit rate 0.3% among 360,000. activity change, % at 10 µM; in the data active = activity change above about 30%, passing the limit was not always enough;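 note: controls were the assay level and a saturating level of protein; the project sought stronger binding though the title names inhibitors; some compounds called inactive have numbers as strong as hits; positive values seem to mean higher polarization but the record does not say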
Target sequence (P41235 whole entry, looked up): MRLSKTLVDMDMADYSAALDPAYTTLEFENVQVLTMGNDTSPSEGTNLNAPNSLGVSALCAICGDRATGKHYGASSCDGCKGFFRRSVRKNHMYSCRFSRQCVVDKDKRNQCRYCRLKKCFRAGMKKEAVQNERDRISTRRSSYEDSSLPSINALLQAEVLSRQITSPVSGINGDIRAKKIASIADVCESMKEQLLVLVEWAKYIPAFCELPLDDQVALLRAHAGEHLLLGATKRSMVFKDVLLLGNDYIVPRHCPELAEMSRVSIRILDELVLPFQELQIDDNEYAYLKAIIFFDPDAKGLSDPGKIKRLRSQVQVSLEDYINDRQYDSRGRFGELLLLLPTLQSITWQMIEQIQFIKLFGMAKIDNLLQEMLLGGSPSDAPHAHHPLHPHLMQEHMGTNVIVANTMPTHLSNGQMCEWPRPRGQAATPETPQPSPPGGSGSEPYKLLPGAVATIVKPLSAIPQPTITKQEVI
UCH37 DUB inh – inhibitors of human deubiquitinating enzyme UCH37 | Q9Y5K5 | purified proteasome/UCH37, Ub-AMC cleavage fluorescence | inhibition, % (concentration not given with the values) | hit rate 0.33% among 330,000 | AID 588478;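 active = mean of two replicates above 20%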;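 note: 0% = compound-free wells with enzyme and 100% = wells lacking proteasome; stock transfer was 100 nL into about 20 µL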
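Reagent: Ub-AMC substrate; assay system: Proteasome-associated human UCH37 deubiquitinase; controls: no-proteasome and no-compound wells; read-out: % inhibition of Ub-AMC cleavage fluorescence; timing: 30 min preincubation with enzyme, 25 min cleavage at room temperature; signal: AMC fluorescence from Ub-AMC cleavage, excitation 355 nm, emission 460 nm; buffer or medium: Tris-HCl pH 7.4 plus ovalbumin, ATP-MgCl2, DTT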
A1 inh – inhibitors of the anti-apoptotic protein A1, read as caspase activation. caspase activation, % (test concentration not listed). hit rate 0.066% among 330,000. MEF A1-2A-BIM cells, Caspase-Glo 3/7 luminescence, 3 h; percent of clofoctol response, vehicle zero. AID 2462;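 active = over half of replicate activation scores above 10%, or exactly half above 10 with the replicate mean above 10; inconclusive = replicate mean below 10 yet half the replicates above 10; inactive = over half of replicates below 10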;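 note: wells of about 30 µL received 50 nL stock; many hits fall short of the cut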
* = called active by the depositor; ? = inconclusive; nt = no result given; + = active, no number; & = joins results of further samples. This is a subset; count on the stated rates, not on these rows.

The line under a structure holds: E coli growth, LANA-H2B inh, Vif A3G, Beta2AR agonist, HNF4A DNA FP, UCH37 DUB inh, A1 inh
1) O=C(C1CC(c2ccc(F)cc2)=NO1)N1CCC2(CC1)OCCO2 (centres undefined)
  0.7, 1.5, -3%, 23, -1.1, 0.2, 0.3
2) Cc1ccc(-n2c(O)c(/C=N/Nc3ccccc3)c(=O)[nH]c2=O)cc1C
  0.6, -0.6, 4%, nt, nt, 3.6, 1.1
3) C=C(C)CSc1nnc([C@@H](N)Cc2c[nH]c3ccccc23)o1
  0.67, -4.5, 24%, -1, 5.0, -0.8, -0.1
4) CO[C@@H]1C=CC23c4cc5c(cc4CO[C@]2(O)CN(C)[C@H]3C1)OCO5 (some centres undefined)
  nt, 2.5, nt, -4, -1.1, -1.0, 1.7
5) FC(F)=C(F)CCSc1ncn[nH]1
  0.67, -1.4, 1%, -2, -0.1, 1.0, 0.0
6) Cn1c(O)c(/C=N/NC(=O)c2ccncc2)c(=O)[nH]c1=S
  0.68, -2.0, 67%, 3, 2.4, -36, -1.0
7) Cn1cc(C=C(C#N)C#N)c2ccccc21
  0.7, +, nt, -4, 9.9, 2.5, 0.1
8) N=C1C(c2ccccc2)=C(O)CN1Cc1ccco1
  0.6, 0.8, 3%, 1, 0.5, 3.9, 0.2
9) CN(C(=O)Oc1ccc(Cl)c2cccnc12)c1ccccc1
  0.66, -5.1, -4%, -11, 2.7, 3.0, 0.0
10) CCCOC(=O)c1ccccc1C(=O)OCCC
  0.67, -0.6, nt, -1, 1.5, 3.6, 0.7
11) O=S(=O)(F)c1ccc2nc(-c3cccc(Sc4ccccc4)c3)cc(Cl)c2c1
  0.66, -0.1, -9%, 2, -2.2, -17, -0.5
12) CCC1(C2=NCCN2)Cc2ccccc2O1 (centres undefined)
  0.69, 1.4, nt, 8, 3.5, -0.4, -0.7
13) COC(=O)C1=C(c2ccc(F)cc2OCc2ccccc2)C[C@@H]2CC[C@H]1N2C(=O)NCc1ccc2[nH]ccc2c1
  nt, -2.7, nt, -2, 6.9, 0.7, 0.1
14) COC(=O)C1=C(c2cccc(OC)c2OC)C[C@@H]2CC[C@H]1N2C(=O)NCC1CC1
  nt, -3.7, nt, 0, 3.6, 0.3, 1.2
15) O=C(NC1CN2CCC1CC2)c1cccc(Cl)c1 (centres undefined)
  0.68, -3.5, -4%, -9, 0.8, 1.7, -0.8
16) CC(C)n1c(=O)c(C=Nc2cccc([N+](=O)[O-])c2)c(O)n(CCc2ccccc2)c1=O
  0.69, -9.6, nt, -2, 3.3, 5.4, -0.2
17) ClCC(Br)CBr (centres undefined)
  0.68, -42, nt, 1, -2.8, 5.6, -0.1
18) COc1cccc(-n2c(CN3CCOCC3)nc3ccc([N+](=O)[O-])cc3c2=O)c1
  0.68, -4.1, -6%, -1, 2.1, 2.9, 1.1
19) Oc1ccc2c3c1O[C@H]1c4oc5ccccc5c4C[C@@]4(O)[C@@H](C2)N(CC2CC2)CC[C@]314
  nt, 0.7, 6%, 1, -6.1, 0.7, 0.5
20) O=c1[nH]c(=O)n(-c2cccc3ccccc23)c(O)c1/C=N/N1CCCCCC1
  0.68, 3.3, -1%, -10, -2.3, 1.3, -0.5
21) C#C[C@@]1(O)CCC2C3CCC4=C/C(=N/OCC(=O)NC(C(=O)O)C(C)O)CC[C@]4(C)C3CC[C@@]21C (some centres undefined)
  nt, -0.9, -9%, -24, -1.2, nt, 1.3
22) COC(=O)C1=C(C)NC(=S)NC1c1ccc(N(CCCl)CCCl)cc1Cl (centres undefined)
  nt, nt, -8%, -2, 7.1, nt, nt
23) Cc1cc([N+](=O)[O-])c(Cl)cc1NC(=O)C(C)C
  0.68, -4.2, 0%, -2, -2.4, 0.1, 0.2
24) O=P(C(c1ccc2c(c1)OCO2)N1CCOCC1)(N1CCOCC1)N1CCOCC1 (centres undefined)
  0.73, -1.1, 64%, 12, 3.2, 1.2, -0.2
25) COC(=O)C1=C(c2cccc(OC)c2OC)C[C@@H]2CC[C@H]1N2C(=O)N1CCCCC1
  nt, 0.7, nt, 0, 2.4, 2.0, 0.6
26) NC(=O)C1(N2CCCCC2)CCN(Cc2ccccc2)CC1
  0.66, 3.6, 2%, -3, -2.4, 2.4, -0.6
27) CCOC(=O)C1CCN(C(C)C(=O)c2c[nH]c3ccccc23)CC1 (centres undefined)
  0.64, -3.5, -10%, 6, -0.5, 0.4, 1.2
28) O=S1(=O)CCN(CCc2c[nH]c3ccccc23)CC1
  0.68, 10.0, 3%, -4, -3.8, 1.5, -0.3
29) Nc1c(C(=O)NCc2ccco2)c2nc3ccccc3nc2n1Cc1ccc(F)cc1
  0.75, -2.3, 17%&2%, -1, 7.7, -153, -1.0
30) C=CCC1(CC)C(=O)NC(=S)NC1=O
  nt, nt, -3%, 4, -3.4, nt, nt

Next part; the last 2 above are carried over.
The line under a structure holds: E coli growth, LANA-H2B inh, Vif A3G, Beta2AR agonist, HNF4A DNA FP, UCH37 DUB inh, A1 inh
29) Nc1c(C(=O)NCc2ccco2)c2nc3ccccc3nc2n1Cc1ccc(F)cc1
  0.75, -2.3, 17%&2%, -1, 7.7, -153, -1.0
30) C=CCC1(CC)C(=O)NC(=S)NC1=O
  nt, nt, -3%, 4, -3.4, nt, nt
31) CC(=O)C1CCC2(O)C3CCC4=CC(=O)CCC4(C)C3CCC12C (centres undefined)
  0.71, nt, 1%, 0, 0.5, 2.4, nt
32) COC(=O)C1=C(c2ccc(OC(F)(F)F)cc2)C[C@@H]2CC[C@H]1N2C(=O)N1CCC(O)CC1
  nt, 0.4, nt, -2, -4.9, 3.1, 0.0
33) O=C(O)Cn1cc(/C=C2\C(=O)NC(=O)N(c3ccc(Br)cc3)C2=O)c2ccccc21
  nt, 0.2, nt, 5, -4.1, nt, -0.3
34) COc1ccc(C(=O)N2C[C@H]3C[C@@H](C2)c2cccc(=O)n2C3)cc1OC
  0.78, 2.1, nt, -1, 1.3, -1.6, 0.5
35) Cc1cccc(N2C(=O)NC(=O)C3(Cc4cc(C)ccc4N(C)C3)C2=O)c1 (centres undefined)
  0.75, 1.4, 2%, 3, 0.5, -2.6, 1.1
36) CCCn1c(C(=O)c2ccc(OC)cc2)nc2ccccc21
  0.69, -0.6, -9%, 1, 3.5, 4.6, 0.4
37) O=C(c1ccc2c(c1)N(Cc1ccc(F)cc1)CCS2)N1CCC2(CC1)OCCO2
  0.6, 0.9, nt, 4, -3.0, -128, -1.4
38) CC(C)C(=O)NC(Oc1ccccc1Cl)C(Cl)(Cl)Cl (centres undefined)
  0.75, -2.6, 0%, -5, 3.3, 0.9, -0.4
39) CC12CCC(=O)C=C1CCC1C2CCC2(C)C(O)CCC12 (centres undefined)
  0.68, -1.1, -1%, -13, 0.5, -1.3, 0.5
40) C=CCn1c(O)c(C(C)=NCCCN2CCOCC2)c(=O)[nH]c1=O
  0.72, 4.8, -3%, 5, 0.5, 2.2, -0.8
41) CCOP(=O)(OCC)C(NC(=O)CC(C)C)C(Cl)(Cl)Cl (centres undefined)
  0.66, -1.2, 2%, 8, 0.1, -0.6, 0.1
42) CCN(C=C1CC2C3CC=C4CC(O)CCC4(C)C3CCC2(C)C1=O)CC (centres undefined)
  0.65, nt, 2%, 10, 1.9, 4.4, nt
43) Cc1ccc2c(c1)CC1(CN2C)C(=O)NC(=O)N(c2ccc(C)c(C)c2)C1=O (centres undefined)
  0.72, -1.6, 16%, -3, -1.4, 1.5, 0.4
44) Cn1c(CN2CCN(C(=O)COc3ccccc3)CC2)nc2cc([N+](=O)[O-])ccc21
  0.68, -1.6, -2%, 1, 1.3, 3.8, -0.1
45) CCOc1cc2c(cc1OCC)-n1cccc1C(c1ccccc1O)NC2 (centres undefined)
  0.62, 3.1, 2%, -4, -2.1, 3.8, -0.8
46) COc1ccc(-c2nn(Cc3ccccc3)cc2C(=O)NC2CC2)cc1OC
  0.71, -5.7, nt, 2, -4.5, 1.8, 0.7
47) O=C(CN1C(=O)CN=C(c2ccccc2)c2ccccc21)NCc1ccco1
  0.69, -2.3, 4%, -2, 0.5, 3.5, 0.2
48) Cc1cc(/C=C2\C(=O)NC(=O)N(Cc3ccccc3)C2=O)c(C)n1-c1ccc(Cl)c(C(=O)O)c1
  0.69, -4.6, nt, -4, -45, 9.0, -0.1
49) CCc1sc(C(=O)N2CCC3(CC2)OCCO3)cc1Br
  0.74, 5.7, ?, 3, -5.3, 2.8, 0.7
50) CC(/C=C(\C)Nc1ccccc1)=Nc1ccccc1
  0.69, 1.4, 28%, 7, -0.7, -0.7, -0.7
51) CN1C(=O)N(C)C(=O)C2(Cc3c(ccc4ccccc34)N(C)C2)C1=O
  0.67, 4.8, 2%, -1, 1.1, 1.3, 0.0
52) CC(C)(O)/C=C/C(=O)[C@](C)(O)C1[C@H](O)C[C@@]2(C)C3CC=C4C(C[C@H](O)[C@@H](O)C4(C)C)[C@]3(C)C(=O)C[C@]12C (some centres undefined)
  nt, -1.7, nt, 24, 5.1, 5.2, 3.0
53) O=C1CC(N2CCC(n3c(=O)[nH]c4ccccc43)CC2)C(=O)N1c1ccc(F)cc1 (centres undefined)
  0.8, -8.6, 9%, 1, -9.7, 7.5, -0.9
54) C[N+]1(C)[C@@H]2CC[C@H]1CC(OC(=O)[C@@H](CO)c1ccccc1)C2 (some centres undefined)
  0.66, 1.7, 0%, 1, -1.6, 4.4, -1.6
55) CSc1ccc(CNC(C)C(O)c2ccccc2)cc1 (centres undefined)
  0.7, 0.4, nt, 3, -3.1, 1.4, 0.7
56) O=C1CNC(c2ccccc2Cl)c2cc(Br)ccc2N1 (centres undefined)
  0.65, -2.8, nt, -4, 0.7, -0.8, -0.5
57) CCc1nc2ccc(N3CCN(C)CC3)cc2nc1CC
  0.72, nt, 1%, -6, -2.4, 0.8, -0.3
58) Cc1ccccc1-c1nc(CS(=O)CC(=O)N2CCC3(CC2)OCCO3)c(C)o1 (centres undefined)
  0.7, 8.6, -4%, 2, -1.3, 1.0, 0.9
59) CCn1c(O)c(C=Nc2cc(Cl)ccc2Cl)c(=O)n(CC)c1=O
  0.67, 5.8, 8%, -7, 4.5, -3.2, 0.1
60) c1ccc2cc(C3N4CCCN34)ccc2c1 (centres undefined)
  0.65, -1.3, 12%, 1, -0.1, 0.6, -0.2
61) Cn1cc(C(=O)Cc2ccccc2)c2ccccc21
  0.69, 3.6, -3%, -20, -4.1, 5.4, 0.3
62) Cc1c(C)c2cc(Cl)c(OCC(=O)N3C[C@H]4C[C@@H](C3)c3cccc(=O)n3C4)cc2oc1=O
  0.68, 0.3, nt, -5, -0.1, -10, 0.4
63) O=C1NC(=O)N(Cc2ccccc2)C(=O)/C1=C\N1CCCc2ccccc21
  0.7, -3.6, nt, 3, 0.3, 0.3, -0.4
